# Source: PubChem BioAssay
# Choline anaer gr: inhibitors of anaerobic choline-dependent gram-negative bacterial growth | Gram-negative bacterium anaerobic choline minimal medium, absorbance growth; stronger effect = lower value; many inactives read as strong as hits in the columns shown | calls only | 55,000 tested, 0.2% active | AID 1963822;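 active means growth z-score on choline under -2 at 7 or 20 h with little or no fall on glycerol, limits in tiers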;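 further: stock transfer was 300 nL into about 50 µL; the organism is E. coli; final concentration not given here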
# Choline anaer gr early: further read-out of Choline anaer gr, marked with its call; z-score; measured here: choline growth z-score, timepoint 1;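 score of optical density at 7 h as mean of two plates; lower means less growth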
# * marks the source's active call; other numbers are inactive results; i = inactive; & = joins results of further samples. Only part of the results is shown; the hit share may differ from the screen's.
1	CCc1ccccc1OC[C@@H](O)CN[C@H]1CCCc2ccccc21
2	COCCCOc1cc(CC(CC(N)C(O)CC(C(=O)NCC(C)(C)C(N)=O)C(C)C)C(C)C)ccc1OC (stereo not given)
3	CN(C)CCCSc1ccccc1NC(=O)/C=C/c1ccccc1
4	CN(c1nccc(=O)[nH]1)C1CCN(c2nc3ccccc3n2Cc2ccc(F)cc2)CC1
5	O=c1n(CCOc2ccccc2)nc2c(S(=O)(=O)N3CCc4ccccc4C3)cccn12
6	C[C@@H]1C[C@H]2[C@@H]3CCC4=CC(=O)C=C[C@]4(C)[C@@]3(Cl)[C@@H](O)C[C@]2(C)[C@@]1(OC(=O)c1ccco1)C(=O)CCl
7	COc1cc(N)c(Cl)cc1C(=O)N[C@@H]1CCN(CCCOc2ccc(F)cc2)C[C@@H]1OC
8	Nc1ncnc2c1c(-c1ccc(Oc3ccccc3)cc1)cn2C1CCCC1

Compound	1	2	3	4	5	6	7	8
Choline anaer gr	i	i	i	i	i	i	i	i
Choline anaer gr early	-0.97	-0.03	0.61&-0.15	0.16	0.43	0.36	-0.1	1

9	O=c1n(Cc2cccc(Cl)c2)nc2c(S(=O)(=O)N3CCOCC3)cccn12
10	CN(C)C/C=C(\c1ccc(Br)cc1)c1cccnc1
11	Cc1cc(=O)oc2cc(O)ccc12
12	COc1cc(N)c(Cl)cc1C(=O)N[C@H]1CCN(CCCOc2ccc(F)cc2)C[C@H]1OC
13	Cc1sc(C)c(S(=O)(=O)NCc2cccs2)c1-c1cc(C(F)(F)F)on1
14	CCCCOc1cc(C(=O)OCCN(CC)CC)ccc1N
15	COC(=O)N/N=C/c1c[n+]([O-])c2ccccc2[n+]1[O-]
16	CC1(C)O[C@@H]2C[C@H]3[C@@H]4C[C@H](F)C5=CC(=O)C=C[C@]5(C)[C@@]4(F)[C@@H](O)C[C@]3(C)[C@]2(C(=O)CO)O1

Compound	9	10	11	12	13	14	15	16
Choline anaer gr	i	i	i	i	i	i	i	i
Choline anaer gr early	0.02	-0.61	-0.31&-1.1	0.12	-0.59	0.54&0.47	-2.6&-1.4	0.84&0.85

17	O=C(Cn1c2ccccc2c2ncn(Cc3nc(C4CC4)no3)c(=O)c21)NC1CCCC1
18	Cn1ccc2cc3c(cc21)CCN3C(=O)Nc1cccnc1
19	Cc1ccc(NS(=O)(=O)c2cc(-c3nc(C)cs3)sc2C)c(C)c1
20	COc1ccccc1CN[C@@H]1CCCN[C@@H]1c1ccccc1
21	COC(=O)C1=C(C)NC(C)=C(C(=O)OCCN2CCN(C(c3ccccc3)c3ccccc3)CC2)C1c1cccc([N+](=O)[O-])c1 (stereo not given)
22	CC(C)(C)NCC(O)COc1cccc2c1C[C@H](O)[C@H](O)C2 (stereo not given in full)
23	CCOC1OC(=O)CC1NC(=O)C1CCCN1C(=O)C(NC(=O)c1ccc(N)c(Cl)c1)C(C)(C)C (stereo not given)
24	CCCCCCCCCCCCCCC[C@@H](O)[C@@H](N)CO

Compound	17	18	19	20	21	22	23	24
Choline anaer gr	i	i	i	i	i	i	i	i
Choline anaer gr early	0.47	-0.95&0.7	1.1	-0.31	0.72&0.47	0.47	0.49	-0.43

25	CCn1cc(C(=O)O)c(=O)c2cc(F)c(N3CCNC(C)C3)c(F)c21 (stereo not given)
26	Fc1ccc(-c2noc(Cc3nc(-c4ccc(Cl)cc4)cs3)n2)cc1
27	Cc1cc(Cl)ccc1OCc1nc2c3ccccc3ncn2n1
28	Cc1ccc(Cn2nc3c(S(=O)(=O)N4CCCC4)cccn3c2=O)cc1
29	CCOc1nc2cccc(C(=O)O)c2n1Cc1ccc(-c2ccccc2-c2noc(=O)[nH]2)cc1
30	CN(C)CC=CC(=O)Nc1cc2c(Nc3ccc(F)c(Cl)c3)ncnc2cc1OC1CCOC1 (stereo not given)
31	COc1ccc(-c2ccc(CNc3ncn[nH]3)o2)cc1Cl
32	C=CCN1C[C@H](C(=O)N(CCCN(C)C)C(=O)NCC)C[C@@H]2c3cccc4[nH]cc(c34)C[C@H]21

Compound	25	26	27	28	29	30	31	32
Choline anaer gr	i	i	i	i	i	i	i	i
Choline anaer gr early	-2.5&0.22&-3.2	0.64	1.7	-0.43	0.82	-2.1	-0.12	-0.5

33	O=C1c2c(O)ccc(O)c2C(=O)c2c(NCCNCCO)ccc(NCCNCCO)c21
34	CCCCN(CCCC)CCCOC(=O)c1ccc(N)cc1
35	CCC1(O)CC2CN(CCc3c([nH]c4ccccc34)[C@@](C(=O)OC)(c3cc4c(cc3OC)N(C)C3[C@]45CCN4CC=C[C@@](CC)([C@@H](OC(C)=O)[C@]3(O)C(=O)OC)[C@H]45)C2)C1 (stereo not given in full)
36	Cc1cc(-c2cc(S(=O)(=O)NCc3ccccc3Cl)c(C)s2)n[nH]1
37	OCCCNc1nc(Nc2ccccc2)c2cnn(-c3ccccc3)c2n1
38	Cc1cc(-c2csc(S(=O)(=O)N(Cc3ccco3)C3CCCC3)c2)on1
39	CN(C(=O)c1c(O)c2ccccc2n(C)c1=O)c1ccccc1
40	Cc1cc(CC(C)CC(C)(C)C)n(O)c(=O)c1 (stereo not given) (tested in a mixture with another compound)

Compound	33	34	35	36	37	38	39	40
Choline anaer gr	i	i	i	i	i	i	i	i
Choline anaer gr early	1.4&2.4&6.9	0.06	0.11	0.17	2	0.75	0.38	-0.34&-2.8

41	CCC(=O)O[C@]1(C(=O)SCF)C(C)CC2C3CC(F)C4=CC(=O)C=C[C@]4(C)[C@@]3(F)C(O)C[C@@]21C (stereo not given in full)
42	CC(=O)N[C@@H](Cc1ccccc1)C(=O)O
43	O=C(O)Cc1sc(-c2ccccc2)nc1-c1ccc(Cl)cc1
44	CC(=O)OCC(=O)[C@@]1(O)CC[C@H]2[C@@H]3CCC4=CC(=O)C=C[C@]4(C)[C@@]3(F)[C@@H](O)C[C@@]21C
45	Cc1cc(Cn2cnc3c2C[C@@H](C(=O)O)N(C(=O)C(c2ccccc2)c2ccccc2)C3)ccc1N(C)C
46	Cc1cc(C)n2c(Nc3ccc(Cl)cc3)c(-c3ccc(O)cc3)nc2n1
47	CCOC(=O)C(CC)n1nc2ccc(S(=O)(=O)N3CCC(C)CC3)cn2c1=O (stereo not given)
48	CC1CCN(S(=O)(=O)c2cc(-c3ccc(=O)[nH]n3)cs2)CC1

Compound	41	42	43	44	45	46	47	48
Choline anaer gr	i	i	i	i	i	i	i	i
Choline anaer gr early	0.31	0.13	0.66&0.16	-0.6	1.3	0.12	-0.16	0.37

49	COc1cccc(N2CCN(C(=O)C3CCN(c4ncnc5c4oc4ccccc45)CC3)CC2)c1
50	COc1ccc(C(=O)c2ccccc2)c(O)c1
51	Cc1ccccc1OCC(O)CO (stereo not given)
52	O=c1ccc(-c2ccc3c(c2)OCO3)nn1CCc1nc(-c2cccc(Cl)c2)no1
53	CN(C)CC/C=C1/c2ccccc2COc2ccc(CC(=O)O)cc21
54	CCN(CC)CC1CCCCN1CC(=O)N1c2ccccc2C(=O)Nc2cccnc21 (stereo not given)
55	N=c1nc(N2CCCCC2)cc(N)n1O
56	CCC1OC(=O)CC(O)C(C)C(OC2OC(C)C(O)C(N(C)C)C2O)C(CCN2CC(C)CC(C)C2)CC(C)C(=O)C=CC(C)=CC1COC1OC(C)C(O)C(OC)C1OC (stereo not given)

Compound	49	50	51	52	53	54	55	56
Choline anaer gr	i	i	i	i	i	i	i	i
Choline anaer gr early	0.79	-0.1	-0.31	-0.19	0.83&0.96	0.84&0.38	0.45&0.57&0.24&0&0.38	-2.5

57	CCCOc1ccc2nc(NC(=O)OC)[nH]c2c1
58	Cc1nnc(C(=O)Nc2cccc(C(=O)NCCc3c[nH]c4ccc(Cl)cc34)c2)s1
59	CCc1ccc(-c2ccc(=O)n(CCc3nc(-c4cccc(C)c4)no3)n2)cc1
60	Cc1scc2c1N(C(=O)CN1CCN(C)CC1)c1ccccc1NC2=O
61	CCCOc1ccc(C(=O)OCCN(CC)CC)cc1N
62	O=C(NCc1cccnc1)C1CCN(c2ncnc3c2oc2ccccc23)CC1
63	CN[C@@H]1[C@H](O)[C@H](NC)[C@H]2O[C@@]3(O)C(=O)C[C@@H](C)O[C@H]3O[C@@H]2[C@H]1O
64	COC(=O)c1ccccc1O

Compound	57	58	59	60	61	62	63	64
Choline anaer gr	i	i	i	i	i	i	i	i
Choline anaer gr early	0.49&0.34	0.49	2.1	0.63&0.18&0.93&0.34	0.14	-0.78	-1.9&-1.8	1.3

# A section from the list above, as a working copy:
57	CCCOc1ccc2nc(NC(=O)OC)[nH]c2c1
58	Cc1nnc(C(=O)Nc2cccc(C(=O)NCCc3c[nH]c4ccc(Cl)cc34)c2)s1

Compound	57	58
Choline anaer gr	i	i
Choline anaer gr early	0.49&0.34	0.49

# Next section
65	CCN(CC)CCOc1ccc(Cc2ccccc2)cc1
66	CC(Cc1cccc(C(F)(F)F)c1)NCCOC(=O)c1ccccc1 (stereo not given)
67	CCOc1ccc(-n2nnc(-c3nc(-c4ccccc4OC)cs3)c2N)cc1
68	CC[C@]1(O)C[C@H]2CN(CCc3c([nH]c4ccccc34)[C@@](C(=O)OC)(c3cc4c(cc3OC)N(C)[C@H]3[C@@](O)(C(=O)OC)[C@H](OC(C)=O)[C@]5(CC)C=CCN6CC[C@]43[C@@H]65)C2)C1
69	Cc1nnc(-c2ccc3occ(-c4ccc(S(C)=O)cc4)c3c2)o1 (stereo not given)
70	O=C(O)c1cc(=O)c2ccccc2o1
71	CNS(=O)(=O)CCc1ccc2[nH]cc(C3CCN(C)CC3)c2c1
72	CCN(CCCCOC(=O)c1ccc(OC)c(OC)c1)C(C)Cc1ccc(OC)cc1 (stereo not given)

Compound	65	66	67	68	69	70	71	72
Choline anaer gr	i	i	i	i	i	i	i	i
Choline anaer gr early	-0.14	0.05	-0.27	0.44	0.48	0.76	0.24	0.88

73	COc1cc(C=O)ccc1O
74	Cc1cc(C(=O)NC2CC2)no1
75	CC(C)NNC(=O)c1ccncc1
76	CCc1cccc(CC)c1NC(=O)CN(CC(=O)O)CC(=O)O
77	CCc1c2c(nc3ccc(OC(=O)N4CCC(N5CCCCC5)CC4)cc13)-c1cc3c(c(=O)n1C2)COC(=O)[C@@]3(O)CC
78	CN(C)C(=O)N1CC(c2nc(-c3ccc(F)cc3)no2)C2(CCOCC2)C1 (stereo not given)
79	Nc1c2ccccc2nc2ccccc12

Compound	73	74	75	76	77	78	79
Choline anaer gr	i	i	i	i	i	i	i
Choline anaer gr early	0.57	0.3	0.18&0.16&-0.72	0.32	-0.32	0.57	-1.1

# Part of the list above in order of length of the SMILES, rising:
73	COc1cc(C=O)ccc1O
75	CC(C)NNC(=O)c1ccncc1
79	Nc1c2ccccc2nc2ccccc12
70	O=C(O)c1cc(=O)c2ccccc2o1
65	CCN(CC)CCOc1ccc(Cc2ccccc2)cc1
61	CCCOc1ccc(C(=O)OCCN(CC)CC)cc1N
76	CCc1cccc(CC)c1NC(=O)CN(CC(=O)O)CC(=O)O
66	CC(Cc1cccc(C(F)(F)F)c1)NCCOC(=O)c1ccccc1 (stereo not given)
71	CNS(=O)(=O)CCc1ccc2[nH]cc(C3CCN(C)CC3)c2c1
69	Cc1nnc(-c2ccc3occ(-c4ccc(S(C)=O)cc4)c3c2)o1 (stereo not given)

Compound	73	75	79	70	65	61	76	66	71	69
Choline anaer gr	i	i	i	i	i	i	i	i	i	i
Choline anaer gr early	0.57	0.18&0.16&-0.72	-1.1	0.76	-0.14	0.14	0.32	0.05	0.24	0.48

62	O=C(NCc1cccnc1)C1CCN(c2ncnc3c2oc2ccccc23)CC1
67	CCOc1ccc(-n2nnc(-c3nc(-c4ccccc4OC)cs3)c2N)cc1
72	CCN(CCCCOC(=O)c1ccc(OC)c(OC)c1)C(C)Cc1ccc(OC)cc1 (stereo not given)
78	CN(C)C(=O)N1CC(c2nc(-c3ccc(F)cc3)no2)C2(CCOCC2)C1 (stereo not given)
63	CN[C@@H]1[C@H](O)[C@H](NC)[C@H]2O[C@@]3(O)C(=O)C[C@@H](C)O[C@H]3O[C@@H]2[C@H]1O
77	CCc1c2c(nc3ccc(OC(=O)N4CCC(N5CCCCC5)CC4)cc13)-c1cc3c(c(=O)n1C2)COC(=O)[C@@]3(O)CC
68	CC[C@]1(O)C[C@H]2CN(CCc3c([nH]c4ccccc34)[C@@](C(=O)OC)(c3cc4c(cc3OC)N(C)[C@H]3[C@@](O)(C(=O)OC)[C@H](OC(C)=O)[C@]5(CC)C=CCN6CC[C@]43[C@@H]65)C2)C1

Compound	62	67	72	78	63	77	68
Choline anaer gr	i	i	i	i	i	i	i
Choline anaer gr early	-0.78	-0.27	0.88	0.57	-1.9&-1.8	-0.32	0.44
